VDR inhibitor – vitamin D3 receptor (human) inhibition; VDR-SRC2-3 peptide fluorescence polarization, 2 h; actives 0.93% (n = 400,000); Potency, µM, for the others: max response, negative = inhibition, most hits filed as inhibitors; P11473; AID 504847; active means well fitted inhibition curve with a large enough effect; inconclusive means small, poorly fitted or top-dose-only effect, or another doubt; inactive means no such curve, though single readings can be large or run the other way; further: series mostly up to about 120 µM
Target sequence (P11473 whole entry, looked up): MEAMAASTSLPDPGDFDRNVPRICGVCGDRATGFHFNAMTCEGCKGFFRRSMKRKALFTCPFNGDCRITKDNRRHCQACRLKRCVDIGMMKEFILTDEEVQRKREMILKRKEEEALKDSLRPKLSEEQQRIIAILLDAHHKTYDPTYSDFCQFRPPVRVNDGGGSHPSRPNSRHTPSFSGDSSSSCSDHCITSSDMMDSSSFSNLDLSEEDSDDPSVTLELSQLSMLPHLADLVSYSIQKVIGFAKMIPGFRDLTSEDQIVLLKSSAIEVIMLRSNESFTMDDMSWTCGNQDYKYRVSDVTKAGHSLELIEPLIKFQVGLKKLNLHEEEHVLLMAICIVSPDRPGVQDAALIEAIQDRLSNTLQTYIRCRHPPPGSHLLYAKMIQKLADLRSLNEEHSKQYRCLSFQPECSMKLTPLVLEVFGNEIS
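Signal is fluorescence polarization, reporting how far test compounds block the interaction of VDR with the SRC2-3 coregulator peptide after a 2 h room-temperature incubation.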
The depositor's hits bear a star; ? = inconclusive; & = joins results of further samples. On the % scale 0 is the no-effect control and ±100 the full control effect; potency means the concentration at half of the fitted maximal effect. Only part of the results is shown; count on the stated rates, not on these rows.

SMILES | VDR inhibitor
CN1C(=O)c2ccccc2Sc2ccc(NC(=O)N3CCCC3)cc21 | -6%
CCOc1ccc(CCNC(=O)c2cnc3sc(N4CCC(C)CC4)nn3c2=O)cc1 | 8%
O=C(CN1C(=O)NC2(CCc3ccccc32)C1=O)Nc1ccccc1OC(F)F (stereo not given) | 8%
COc1cc(C(=O)Nc2ccc(O)cc2)ccc1OC(C)=O | 5%
Cc1cc(N2CCN(c3cccc(C)c3C)CC2)n2nc(C)c(-c3ccc(Cl)cc3)c2n1 | 3%
O=C(Nc1ccccc1Cl)c1ccc(-c2ccccn2)s1 | -6%
C[C@H](CO)N1C[C@H](C)[C@@H](CN(C)S(=O)(=O)c2ccccc2)Oc2ccc(NS(=O)(=O)c3cccs3)cc2C1=O | 1%
COc1cc([N+](=O)[O-])ccc1NC(=O)C[n+]1cccc(C)c1 | 21%
CCN(CC)C(=O)[C@H]1CC(CC(=O)NC/C=C(\C)CCC=C(C)C)C(=O)N2CCc3c([nH]c4ccc(OC)cc34)[C@]12C (stereo not given in full) | 4%
CCOC(=O)Cn1c(=O)n(C2CCCCC2)c2nc(-c3ccc(OC)cc3)nc(C(N)=O)c21 | 21%
CN=C1SC(CC(=O)Nc2ccc(C(=O)O)cc2)C(=O)N1C (stereo not given) | 2%
Cc1cc(=O)oc2ccc(OCC(=O)N(Cc3ccc(F)cc3)Cc3ccco3)cc12 | -11%
O=C(CSc1nc(Nc2ccccc2)nc(N2CCOCC2)n1)Nc1ccccc1Cl | -25%
COc1cc(/C=N/NC(=O)COc2ccccc2[N+](=O)[O-])ccc1OC(=O)c1ccco1 | ?
CCOc1ccccc1NS(=O)(=O)c1cc2[nH]c(=O)c(=O)[nH]c2cc1C | 7%
Cc1ccccc1OCC(=O)Nc1ccc(C(=O)OCc2cc(=O)n3c(C)csc3n2)cc1 | 8%
COc1ccc(NC(=O)C(C)n2nc(-c3cc(C)ccc3C)c3c(c2=O)CCCC3)cc1 (stereo not given) | 10%
O=C(CCSCCC(=O)NCC1CCCO1)NCC1CCCO1 (stereo not given) | -17%
O=C(NCc1ccc(-c2csnn2)cc1)c1cccs1 | -18%
COc1ccc(N2CCN(C3CCCN(Cc4ccccc4OCCO)C3)CC2)cc1 (stereo not given) | 3%
Cc1cc(C)nc(SCC(=O)Nc2ccc(S(=O)(=O)Nc3ncccn3)cc2)n1 | 17%
COc1ccc(OC)c(NC(=O)CCN2CCN(CCO)CC2)c1 | 8%
CCOC(=O)c1ccc(NC(=O)CSc2ccc(-c3ccncc3)nn2)cc1 | -11%
Cc1cc(F)ccc1S(=O)(=O)N1CCCOC1CNC(=O)C(=O)NCCC1=CCCCC1 (stereo not given) | 11%
COc1ccc2c(c1OC)C(=O)N1c3ccccc3C(=O)N(c3ccc(F)cc3)C21 (stereo not given) | 13%

Next section:
SMILES | VDR inhibitor
Cn1c(=O)c2c(nc(Oc3cccc(Br)c3)n2C)n(C)c1=O | -20%
CCOC(=O)/C=C/C(=O)OCc1csc(CC(=O)Nc2ccccc2C)n1 | 0%
Cc1cccc(C(=O)NCCNC(=O)c2cccnc2)c1 | 13%
CC(=O)NC(CC(=O)OCC(=O)Nc1ccc2c(c1)OCO2)c1ccccc1 (stereo not given) | -13%
O=c1c2ccccc2[nH]c(=S)n1CCCn1ccnc1 | -12%
COc1ccc(-c2nn(-c3ccccc3)cc2CNCc2cccnc2)c(F)c1 | -9%
COc1ccc(CCN2CCC(CNC(=O)c3cnn(-c4cccc(Cl)c4)c3C3CCN(C(=O)OC(C)(C)C)CC3)CC2)cc1 | 5%
COc1ccccc1C(=O)Nc1nc(-c2ccccc2)ns1 | -1%
CCOC(=O)C1(C(=O)OCC)CCN(S(=O)(=O)c2ccccc2)CC1 | -16%
CCc1ccccc1NC(=O)C1CCCN(c2nnc(-n3c(C)ccc3C)s2)C1 (stereo not given) | 7%
Cc1ccc(-n2nnnc2Sc2nc([N+](=O)[O-])nn2C)cc1 | 2%
COc1ccc([N+](=O)[O-])cc1-n1cccc1 | -17%
COC(=O)c1cc(NC(=O)c2cccc(C(F)(F)F)c2)c(=O)oc1C | 2%
CCOc1ccc(N2CC(=O)SC2=S)cc1 | 18%
CCOC(=O)N1CCN(c2ccc(S(=O)(=O)N(Cc3ccccc3)Cc3ccccc3)cn2)CC1 | 16%
O=C(CSc1nnc(NC(=O)c2ccco2)s1)Nc1ccc2c(c1)OCCO2 | 8%
CCSc1nnc(NC(=O)C(C)Sc2nc3ccccc3[nH]2)s1 (stereo not given) | -4%
CCOc1ccccc1CN1CCNC(=O)C1CC(=O)NCCC1=CCCCC1 (stereo not given) | 7%
Cc1ccc(-c2nn(-c3ccccc3)c3c2cnc2ccccc23)cc1C | -11%
CNC1C(O)C(O)C(CO)O[C@H]1OC1C(O[C@@H]2C(O)C(O)[C@@H](N=C(N)N)C(O)C2N=C(N)N)OC(C)[C@]1(O)C=O (stereo not given in full) | -2%
CC(C)Oc1ccc(S(=O)(=O)N2CCCCC2)cc1NC(=O)CN1C(=O)NC2(CCCC2)C1=O | 17%
CCC(C(=O)Nc1ccccc1)n1nc(-c2cc(C)ccc2C)ccc1=O (stereo not given) | -3%
CC1CCC(C(C)C)C(OP(=O)(c2ccccc2)C(O)c2ccncc2)C1 (stereo not given) | -14%
CCN1C(=O)c2ccccc2S(=O)c2ccc(C(=O)N3CCN(c4cccc(Cl)c4)CC3)cc21 (stereo not given) | -7%
O=C(CSc1nnc(Nc2ccccc2)s1)NN1C(=O)NC2(CCCCC2)C1=O | 6%

Next section
SMILES | VDR inhibitor
Cc1cc(NC(=O)c2ccccc2)c(Cl)cc1N | 6%
O=C(Cc1ccccc1)OCC(=O)c1cccc([N+](=O)[O-])c1 | -8%
CCC1(C2=CCCCC2)C(=O)NC(=O)N=C1N (stereo not given) | 15%
C=CCN1C(=O)c2ccccc2NC1c1cc(Br)cs1 (stereo not given) | -8%
Cc1cccn2c(=O)c3cc(C(=O)NCCC4=CCCCC4)n(C)c3nc12 | -4%
CN(C)c1nc(C#N)nc(N2CCOCC2)n1 | -3%&3%
O=C(c1ccc(F)c(S(=O)(=O)N2CCOCC2)c1)N(CCc1ccccc1)Cc1ccccc1 | 5%
Cc1cccc(N2C(=O)CS/C2=N\NC(=O)c2ccc(Cl)cc2)c1C | 7%
Cc1ccc(-c2cc(C(=O)Nc3cc(C)on3)c3ccccc3n2)c(C)c1 | -12%
CC(C)CN(C#N)c1nc(N2CCOCC2)nc(N2CCOCC2)n1 | 0%
COc1cc(NS(=O)(=O)c2ccc(NC(=O)c3ccc(F)cc3)cc2)ncn1 | -7%
O=C(NCCc1ccc(F)cc1)c1n[nH]c2ccccc12 | -5%
COc1ccc(-c2cn3cc(C)ccc3n2)cc1OC | -2%
C=CCC[C@@H](Cc1ccc(F)cc1)C(=O)OC[C@H](Cc1c[nH]c2ccccc12)NC(=O)[C@@H](CC=C)CC(=O)N[C@@H](CO)Cc1ccccc1 | -12%
CCN(CCCNC(=O)c1c(C)oc2ncn(CC(C)C)c(=O)c12)Cc1ccccc1 | 17%
COc1ccc(CNC(=O)CCSc2ccc(F)cc2)cc1OC | -2%
O=S(=O)(c1ccccc1)c1nc(-c2ccco2)oc1SCc1ccc(F)cc1 | -13%
c1ccc(Cc2noc(CN3CCN(Cc4ccc5c(c4)OCO5)CC3)n2)cc1 | 10%
CCCCNC(=O)CSc1nc2c(sc(=S)n2-c2cc(Cl)ccc2OC)c(=O)[nH]1 | -18%
CCc1cccc(OCCCCNCCCOC)c1 | -19%
CCCC(=O)n1nc(-c2ccccc2)nc1SC | 2%
Cc1cccc(-c2nc3cc(NC(=O)COc4ccccc4F)ccc3o2)c1 | 5%
CCN(CC)c1cc(C)c2cc(NC(=O)c3ccccc3F)ccc2n1 | 4%
Cc1cccc(C(=O)Oc2ccccc2C2C[C@]3(C)CC(=O)NC3N2C(=O)c2cccc(C)c2)c1 (stereo not given in full) | -9%
COc1cccc(CC(NC(C)=O)C(=O)NC2CCN(S(=O)(=O)c3ccc4ccccc4c3)CC2)c1 (stereo not given) | -4%

Later entries:
SMILES | VDR inhibitor
COc1ccccc1N(C)S(=O)(=O)c1ccc(C(=O)N2CCCc3ccccc32)cc1 | 1%
Cc1ccc(C2=NN(C(=O)CCl)C(c3cccs3)C2)o1 (stereo not given) | -14%
O=C(c1ccncc1)N1CCC2(CCCN(Cc3ccncc3)C2)CC1 | 0%
N=c1n(CCN2CCCCC2)c2ccccc2n1CC(=O)c1cccc([N+](=O)[O-])c1 | -4%
COc1cc2[nH]c(C(=O)N3CCN(c4ccccc4F)CC3)cc2c(OC)c1OC | -18%
Cc1ccc(S(=O)(=O)Nc2cc(C)c(O)cc2C)cc1 | 5%
CC1(c2ccc(OC(F)F)cc2)NC(=O)N(CC(=O)N2c3ccccc3NC(=O)C2(C)C)C1=O (stereo not given) | 2%
Cn1c(C(O)c2ccc(Br)cc2)nc(Cl)c1Cl (stereo not given) | -20%
O=C(CSc1nnc(NC(=O)c2ccccc2F)s1)NC1CC1 | -20%
COc1ccc(CCNC(=O)c2cc(-c3ccccn3)nc3ccccc23)cc1 | -5%
Cc1nnc(SCc2nnc(-c3cccs3)o2)n1C | 7%
Cc1ccc2[nH]c(-c3ccccc3)c(CN(C)C)c(=O)c2c1 | 10%
Cc1cccc(NC(=O)CCn2cnnn2)c1 | -19%&-4%
O=C1c2ccccc2NC(c2cccs2)N1NS(=O)(=O)c1ccccc1 (stereo not given) | 1%
Cc1ccc(S(=O)(=O)NCCC(=O)OCC(=O)Nc2ccccc2Cl)cc1 | 10%
Cc1cccc2c(C(=O)O)c3cccc(C)c3nc12 | -21%
COCC(=O)N1CCCC(C(=O)c2ccc(Oc3ccccc3)cc2)C1 (stereo not given) | -1%
COc1ccccc1C(=O)OCc1cc(=O)n2nc(C3CCCCC3)sc2n1 | -8%
Cc1cccc(Nc2nnc(SCC(=O)Nc3cccnc3Cl)s2)c1 | 5%
CCOCCCNC(=O)c1ccc(CS(=O)(=O)Cc2cccc(C)c2)o1 | -14%
COc1ccc(/C=C\C(=O)NCc2ccc3[nH]c(C)cc3c2)cc1OC | 11%
Cc1onc(-c2ccccc2Cl)c1C(=O)N(Cc1ccccc1)C(C)C | -7%
O=S(=O)(CCSc1nc2ccccc2o1)Cc1ccccc1 | -5%
CC(=O)Nc1ccc(SCC(=O)OCC(=O)NC(=O)NC2CCCC2)cc1 | 6%
Cc1ccc(NC(=O)COC(=O)CNC(=O)C2CCCCC2)c(Br)c1 | -12%

Going on with the list:
SMILES | VDR inhibitor
CSc1ncccc1C(=O)Nc1ccc(C)cn1 | -6%
O=S(=O)(Cc1ncc(C(F)(F)F)cc1Cl)c1ccccc1 | 9%
CCOC(=O)C1=C(C)NC(=S)NC1c1ccc(OCC(=O)N2CCCCCC2)cc1 (stereo not given) | -26%
CCOc1ccc(S(=O)(=O)Nc2ccc(C(=O)NN)cc2)cc1 | -17%
CC(=O)c1cccc(NC(=O)COC(=O)c2n[nH]c3ccccc23)c1 | 7%
CCCCn1c(=O)cc(N2CCOCC2)[nH]c1=O | -19%
CCOCCCNC(=O)C(NC(=O)CNC(=O)c1ccccc1)c1ccc(C)cc1 (stereo not given) | -10%
Cc1ccc(C(=O)OCC(=O)NCc2ccc(F)cc2)o1 | -17%
O=C(NC1CC1)C1CC(=O)N(c2cccc(Cl)c2)C1 (stereo not given) | 7%
CCc1ccc(C(=O)NC(CCSC)C(=O)OC)cc1 (stereo not given) | -1%
CCOc1ccc(CC(=O)NCCS(=O)(=O)N2CCN(c3ccccc3)CC2)cc1 | -5%
CCOC(=O)c1sc(NC(=O)c2ccc(Cl)s2)cc1C | 11%
COc1ccccc1N(CC(=O)NCCSc1ccc(Cl)cc1)S(C)(=O)=O | 21%
CCN(CC(=O)Nc1ccccc1C(=O)Nc1ccccc1)Cc1nc2ccccc2c(=O)[nH]1 | 3%
O=C(N/N=C/c1ccc(OC(=O)c2ccccc2Cl)cc1)c1ccccn1 | -20%
COc1ccc(CN(C(=O)c2snc(C(N)=O)c2N)C(C(=O)NC2CCCC2)c2ccc(OC)cc2)cc1 (stereo not given) | -3%
O=C(CSc1nncs1)Nc1ccc2[nH]c(=O)[nH]c2c1 | 1%
COc1ccc(-c2c3c(=O)n(C)c(=O)n(C)c3cn2-c2ccccc2)cc1 | 0%
COC(=O)c1cc2c(ccc3ccccc32)oc1=O | -10%
C(#Cc1ccccc1)CN1CCOCC1 | 8%
CCOC(=O)c1cc2cc(F)ccc2nc1C | 10%
COc1ccccc1N1CCN(CC(=O)Nc2ccc3c(c2)OCCO3)CC1 | 16%

A different layout for 15 compounds above:
SMILES,VDR inhibitor
Cc1ccc(C(=O)OCC(=O)NCc2ccc(F)cc2)o1,-17%
O=C(NC1CC1)C1CC(=O)N(c2cccc(Cl)c2)C1 (stereo not given),7%
CCc1ccc(C(=O)NC(CCSC)C(=O)OC)cc1 (stereo not given),-1%
CCOc1ccc(CC(=O)NCCS(=O)(=O)N2CCN(c3ccccc3)CC2)cc1,-5%
CCOC(=O)c1sc(NC(=O)c2ccc(Cl)s2)cc1C,11%
COc1ccccc1N(CC(=O)NCCSc1ccc(Cl)cc1)S(C)(=O)=O,21%
CCN(CC(=O)Nc1ccccc1C(=O)Nc1ccccc1)Cc1nc2ccccc2c(=O)[nH]1,3%
O=C(N/N=C/c1ccc(OC(=O)c2ccccc2Cl)cc1)c1ccccn1,-20%
COc1ccc(CN(C(=O)c2snc(C(N)=O)c2N)C(C(=O)NC2CCCC2)c2ccc(OC)cc2)cc1 (stereo not given),-3%
O=C(CSc1nncs1)Nc1ccc2[nH]c(=O)[nH]c2c1,1%
COc1ccc(-c2c3c(=O)n(C)c(=O)n(C)c3cn2-c2ccccc2)cc1,0%
COC(=O)c1cc2c(ccc3ccccc32)oc1=O,-10%
C(#Cc1ccccc1)CN1CCOCC1,8%
CCOC(=O)c1cc2cc(F)ccc2nc1C,10%
COc1ccccc1N1CCN(CC(=O)Nc2ccc3c(c2)OCCO3)CC1,16%

Screens deposited in PubChem by National Center for Advancing Translational Sciences (NCATS).
